Menin MLL FP FL: qHTS Assay for Inhibitors Targeting the Menin-MLL Interaction in MLL Related Leukemias: Competition With Fluorescein Labeled MLL-derived Peptide | Fluorescence polarization, fluorescein-MLL peptide displacement from menin | FP activity change, % at 61.4 µM | 290,000 tested, under 10 active; inconclusive = falling polarisation curve, or a change in total fluorescence; inactive = total fluorescence flat and polarisation flat or rising; no compound was filed as active; the % refers to the polarisation; negative = inhibition;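 further: % of control where 0% means no effect; inhibitors lower the polarisation; unlabelled MLL peptide was the positive control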
D2 PAM: Beta-Arrestin HTS for Positive Allosteric Modulators of the Human D2 Dopamine Receptor: Potentiators | DiscoveRx D2 beta-arrestin cells, luminescence, 90 min; 100% = 57 uM dopamine signal | potentiation, % (no concentration beside the values) | 0.23% of 360,000 active | AID 624464, 2012; active = potentiation of 50% or more; inconclusive = 30% to 50%; inactive = 30% or less;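 further: compound concentration not given in the record; tested on top of an EC20 dose of dopamine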
Target sequence (P14416 whole entry, looked up): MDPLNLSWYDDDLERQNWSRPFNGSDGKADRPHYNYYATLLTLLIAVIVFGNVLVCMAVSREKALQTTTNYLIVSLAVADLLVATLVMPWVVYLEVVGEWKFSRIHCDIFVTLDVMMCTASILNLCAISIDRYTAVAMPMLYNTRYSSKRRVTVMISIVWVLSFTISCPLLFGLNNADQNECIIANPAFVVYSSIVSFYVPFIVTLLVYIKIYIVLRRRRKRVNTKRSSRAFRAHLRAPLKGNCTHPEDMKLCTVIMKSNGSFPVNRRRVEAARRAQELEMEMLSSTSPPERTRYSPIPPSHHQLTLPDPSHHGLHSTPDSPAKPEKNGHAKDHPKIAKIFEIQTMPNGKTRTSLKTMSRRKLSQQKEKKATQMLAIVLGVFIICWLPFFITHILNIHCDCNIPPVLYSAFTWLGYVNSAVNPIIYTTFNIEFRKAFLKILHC
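PathHunter D2 cells, attached overnight at 37 deg C, received compound in DMSO plus dopamine at EC20 (50 nM final) for 90 min at 37 deg C. Beta-arrestin recruitment was read as luminescence after 1 h with detection reagent at ambient temperature.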
gsp ag: qHTS for Agonist of gsp, the Etiologic Mutation Responsible for Fibrous Dysplasia/McCune-Albright Syndrome: qHTS; 0.13% of 340,000 active; AID 624287, 2012; Potency, µM (highest dose often 76.9 µM), without a hit: top-dose activation (cAMP increase), usual class: activators; gsp mutant cells, cAMP HTRF, 30 min; control for the full effect not named in the record; active = well fitted activation curve with a large enough effect; inconclusive = small, poorly fitted or top-dose-only effect, or another doubt; inactive = no such curve, though single readings can be large or run the other way; cell line not stated here;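 further: phosphodiesterase inhibitor Ro 20-1724 added with compounds to block cAMP breakdown; potency means the concentration at half of the fitted maximal effect; nearly all actives have a fitted effect of over 60% in size; about a fifth of the inactives were tested at one dose only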
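Cells stably selected in G418 were plated at 2000/well, grown 16-24 hr, then given compounds in DMSO with the PDE inhibitor […] (300 uM solution added) for 30 min at 37C; cAMP was read by HTRF.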
ClpP mod: qHTS Assay for Activators of ClpP; AID 651965, 2013; 1.9% of 340,000 active; Potency, µM (titrated, usually from 57.5 µM), without a hit: at the highest dose activity change, negative = active; ATP-dependent Clp protease proteolytic subunit (Bacillus subtilis (strain 168)), P80244; purified B. subtilis ClpP, FRET peptide cleavage, 20 min; active = well fitted falling curve with a large enough effect; inconclusive = small, poorly fitted or top-dose-only effect; inactive = no such curve, though single readings can be large or run the other way; further: potency means the concentration at half of the fitted maximal effect; the source files actives as falling curves though it sought activators and does not explain the sign; nearly all actives have a fitted effect of over 65% in size; many hits overshoot -100%
Target sequence (P80244 whole entry, looked up): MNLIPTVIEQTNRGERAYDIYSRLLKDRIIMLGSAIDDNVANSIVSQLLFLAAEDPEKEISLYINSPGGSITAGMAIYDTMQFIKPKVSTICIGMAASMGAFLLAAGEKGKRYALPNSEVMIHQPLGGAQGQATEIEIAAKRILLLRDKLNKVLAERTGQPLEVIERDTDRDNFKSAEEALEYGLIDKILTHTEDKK
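Buffer: 100 mM Tris/HCl pH8, 100 mM KCl, 0.05% low protease BSA, 2.5% glycerol, 0.01% Tween-20. ClpP 10 microg/mL final; 20 min RT; delta FRET normalized to ADEP and DMSO controls.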
gsp antag: qHTS for Antagonists of gsp, the Etiologic Mutation Responsible for Fibrous Dysplasia/McCune-Albright Syndrome: qHTS | gsp-mutant cells, cAMP HTRF, 30 min; control for the full effect not named in the record | Potency, µM (highest dose often 76.9 µM), for inactives: at the highest dose activity change, negative = inhibition, actives largely listed as inhibitors | 0.4% of 340,000 active | AID 624288, 2012; active = falling curve of any shape with a large fitted effect; inconclusive = falling curve, mostly with a smaller effect; inactive = flat or rising curve; cell line not stated here;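 further: intracellular cAMP measured with PDE inhibitor Ro 20-1724 present during compound exposure; potency means the concentration at half of the fitted maximal effect; on the % scale 0 is the no-effect control and ±100 the full control effect; nearly all actives have a fitted effect of over 65% in size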
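Measurement of cellular cAMP by homogeneous time-resolved fluorescence following a 30 min compound exposure at 37C. The PDE inhibitor […] was present throughout; the assay buffer was DPBS with 0.05% BSA and 0.005% Tween 20.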
Sfp inh: qHTS Assay for Inhibitors of Bacillus subtilis Sfp phosphopantetheinyl transferase (PPTase) | 3.5% of 310,000 active | Potency, µM, without a hit: max response, negative = inhibition, actives largely listed as inhibitors | 4'-phosphopantetheinyl transferase ffp (Bacillus subtilis), Q9F4F7 | Biochemical Sfp PPTase activity, qHTS; active means well fitted inhibition curve with a large enough effect; inconclusive means small, poorly fitted or top-dose-only effect, or another doubt; inactive means no such curve, though single readings can be large or run the other way;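 further: the enzyme is Sfp with the accession as filed and its product quenches rhodamine fluorescence; potency means the concentration at half of the fitted maximal effect; 0% = enzyme reaction without inhibitor and -100% = no enzyme wells; top concentration of the series not given in the record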
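Reaction rates are the 30-min fluorescence difference (ex 525, em 598 nm) in wells containing 15 nM Sfp, 5 uM rhodamine-CoA and 12.5 uM BHQ-2-YbbR at pH 7.6 with 10 mM MgCl2.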
TRPV1 PAM: HTS Assay for Compounds that Act as Potentiators of the Vanilloid Receptor 1; TRPV1-expressing cells, Fluo-8 calcium influx, capsaicin EC20 potentiation; host cell line not named in the record; control for the full effect not named in the record; potentiation, % at 8.33 µM; 0.02% of 320,000 active; active means potentiation above 80%; inconclusive means 30% to 80%; inactive means below 30%; further: 0% is about no effect
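Cells expressing TRPV1 were dye-loaded with Fluo-8 and read kinetically: 10 s baseline, 3 min after compound (agonist portion), then 2 min after EC20 capsaicin (allosteric enhancer portion). Calcium-bound dye fluorescence at 480/520 nm.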
The depositor's hits bear a star; ? = inconclusive; . = no result given; & = joins results of further samples; [ ] = dose if it differs, or a comment. This is a subset, so the mix of outcomes need not match the whole.

The first 2 compounds, to show the layout:
SMILES	Menin MLL FP FL	D2 PAM	gsp ag	ClpP mod	gsp antag	Sfp inh	TRPV1 PAM
CCOC(=O)C(O)(c1ccc(N(CC)S(=O)(=O)c2ccccc2)cc1)C(F)(F)F (centres undefined)	2.2	-13	-24%	-1.1%	-9%	10%	-6
CCC1=C(C)C(N2CCOCC2)=NP(N2CCOCC2)(N2CCOCC2)=N1	1.9	9	16%	-0.5%	5%	12%	-8

Main list, previewed entries included:
SMILES	Menin MLL FP FL	D2 PAM	gsp ag	ClpP mod	gsp antag	Sfp inh	TRPV1 PAM
CCOC(=O)C(O)(c1ccc(N(CC)S(=O)(=O)c2ccccc2)cc1)C(F)(F)F (centres undefined)	2.2	-13	-24%	-1.1%	-9%	10%	-6
CCC1=C(C)C(N2CCOCC2)=NP(N2CCOCC2)(N2CCOCC2)=N1	1.9	9	16%	-0.5%	5%	12%	-8
Cn1c(=O)c2c(nc(N/N=C/c3c(O)n(C4CCCCC4)c(=S)[nH]c3=O)n2C)n(C)c1=O	6.7	-19	0%[15.4 µM]	-0.9%	-2%	71µM*	2
O=C(NN=Cc1ccc(N(CCCl)CCCl)cc1)c1cccnc1	.	5	6%	.	4%	.	.
O=C(Cc1cccc(C(F)(F)F)c1)N1CCN(CC(=O)N2CCCC2)CC1	.	-3	17%	-6.8%	8%	.	2
COC(=O)C1=C(c2ccc3ccccc3c2)C[C@@H]2CC[C@H]1N2C(=O)N1CCC(O)CC1	.	-9	-5%	-0.3%	6%	.	-29
CC1(O)CCN2C(=O)CCc3cccc1c32 (centres undefined)	.	0	5%	1.0%	-1%	.	-3
COC(=O)C1=C(c2ccccc2)C[C@@H]2CC[C@H]1N2C(=O)NC1CCCCC1	.	-6	-29%	1.9%	9%	.	.
O=[N+]([O-])c1cc(-c2ccc([As](=O)(O)O)cc2)ccc1[As](=O)(O)O	-0.8	.	.	.	.	-2%	-2
Nc1ccc(C2(c3ccc(N)cc3)c3ccccc3-c3ccccc32)cc1	-7.2	-6	23%[15.4 µM]	.	-9%	1%	-5
C=CCC1C(=O)NC(=S)NC1=O	0.7	-12	5%[15.4 µM]	.	6%	50µM*	13
CN(C)CC1CSCCC1(O)c1cccc(Cl)c1 (centres undefined)	4.7	16	-13%	-2.0%	?	-14%	0
Cc1ccc(NC(=O)CCSc2nnc(Cc3ccccc3)o2)cc1	3.1	-11	-58%[inhibitor]	0.6%	5%	-31%	3
Oc1c(Br)cc(Br)cc1Oc1ccc(Br)cc1Br	3.8	.	.	.	.	8%	8
CC(=O)OC1CCC2(C)C(=CC(=O)C3C2CCC2(C)C(OC(C)=O)CCC32)C1 (centres undefined)	.	-7	-6%	-3.5%	5%	.	.
O=S(=O)(c1ccc(O)cc1)c1ccc(O)cc1	8.4	-7	15%	-3.8%	5%	11%	-1
CCC(C)C1NC(=O)C(C(C)=O)=C1O (centres undefined)	2.5	-3	2%	0.9%	17%	-4%	15
CN(C)CCCNCC(=O)Nc1ccc(Cl)cc1C(=O)c1ccccc1	-2.4	-29	-3%	-3.1%	4%	56µM*	22
CC1COC2N=C(N[N+](=O)[O-])NC2O1 (centres undefined)	-5.2	-7	-20%	.	8%	10%	-32
CC(C)c1cc(Br)c(NC(=O)Nc2cccnc2)c(Br)c1	-5.2	-5	3%	-1.1%	3%	8%	0
C=C(C)[C@@]12OC3(c4ccccc4)O[C@@H]1C1[C@@H]4O[C@]4(CO)[C@@H](O)[C@]4(O)C(=O)C(C)=C[C@H]4[C@@]1(O3)[C@H](C)[C@H]2OC(=O)/C=C/C=C/c1ccccc1 (some centres undefined)	.	-3	?	-3.4%	10%	.	.
COc1ccc(NC2=NCC(C)S2)cc1 (centres undefined)	-4.4	-7	-9%[15.4 µM]	.	-3%	14%	2
Cn1c2ccccc2c2c(C(=O)N3CCC4(CC3)OCCO4)cn(C3CCCC3)c(=O)c21	3.1	-21	-60%[inhibitor]	?	11%	1%	1
C/C(=C/C=C/[C@@H](C)C(=O)O)[C@H]1CN[C@H](C(=O)O)[C@H]1CC(=O)O	?	-3	-37%	-8.9%	7%	-11%&1%	-3
CNP1(NC)=NC(C(F)(F)F)=NC(C(F)(F)F)=N1	-2.9	7	6%	-0.1%	1%	-7%	2
CCN1C[C@@]2(COC)C3[C@@H](OC)[C@H]4[C@@H]1[C@@]3(C1C[C@H]3[C@H](O)C1[C@]4(O)C[C@H]3OC)[C@@H](OC)C[C@H]2O (some centres undefined)	.	5	.	-0.2%	13%	.	.
C=CCc1ccc(OC)cc1	-2.3	-3	-9%	-0.5%	10%	15%	3
O=C(N/N=C/c1cccnc1)c1ccc(NC(=O)C(c2ccccc2)c2ccccc2)cc1	.	22	14%[15.4 µM]	67%	?	7%	-9
CC(C(=O)c1ccc(Cl)cc1Cl)n1cncn1 (centres undefined)	-8.8	-7	11%	2.1%	11%	15%	-2
CCCCCn1c(=O)c(C(=O)NCc2ccccc2Cl)c(O)c2ccccc21	0.7	-11	17%	-17%	4%	-5%	1
CCCC(=O)c1ccc(CP(=O)(OCC)OCC)o1	-1.7	-6	-31%[inhibitor]	-5.4%	6%	11%	-12
CCOP(=S)(OCC)SCOC(=O)NCC(=O)OC	5.1	4	?	0.7%	-5%	-17%	-5
O=C(COc1ccc(Cl)cc1)NC1CN2CCC1CC2 (centres undefined)	2.0	-32	?	0.6%	11%	2%	6
COc1cc2c(c(OC)c1OC)-c1ccc(O)cc1C(NC(C)=O)CC2 (centres undefined)	.	-4	11%	.	10%	.	.
Nc1c(C(=O)OCc2ccccc2)c2nc3ccccc3nc2n1Cc1cccs1	2.4	-13	-34%[inhibitor]	28µM*	-18%	-6%	-5
O=C(NN=Cc1ccc(N(CCCl)CCCl)cc1)c1cccc([N+](=O)[O-])c1	.	-24	-4%	2.4%	-4%	.	.
CCCCSP1(=S)NCCCN1	1.1	-7	-48%[inhibitor]	1.0%	4%[15.4 µM]	-11%	-12
O=C1NC(=O)C(=Cc2ccsc2)C(=O)N1	0.0	14	16%	.	-3%	?	6
CCCCCSc1cc(O)c(C(CNC)C(C)C)cc1OC (centres undefined)	4.2	-2	2%[15.4 µM]	-0.3%	20%	-14%	-1
NS(=O)(=O)c1ccc(CCNC(=O)c2ccc(Cl)c(S(=O)(=O)N3CCCCCC3)c2)cc1	.	0	-9%	-3.6%	?	.	.
Cc1cc(N2C(=O)C3CCCN3C2c2ccc(Cl)c(Cl)c2)no1 (centres undefined)	-1.6	-7	-14%	-1.9%	-4%	7%	-18
CC(=O)Nc1ccccc1C(=O)OCC(=O)c1ccc2c(c1)OCCO2	3.8	-4	-4%[15.4 µM]	-3.1%	13%	2%	10
O=[N+]([O-])/C=C1/NCCN1Cc1ccc(Cl)nc1	-1.9	-7	-4%[15.4 µM]	.	7%	19%	-6
CC/C(=N\NC(=S)Nc1ccccc1)c1c(O)[nH]c(=O)[nH]c1=O	2.5	4	-18%	2.8%	10%	22µM*	-12
CCCCC(=O)N/N=C/c1c(O)n(CC)c(=S)n(CC)c1=O	?	-18	-121%[inhibitor]	-2.0%	-8%	2%	1
COc1ccccc1CCNC1CCC(C(C)(C)C)CC1 (centres undefined)	5.3	-25	?	0.6%	-2%	5%	-11
c1ccc(C2NCc3ccccc3-n3cccc32)cc1 (centres undefined)	0.2	-10	?	-2.8%	2%	12%	7
Nc1c2c(nc3sc4c(c13)CCCC4)CCCC2	-0.5	-12	-2%	.	-17%	3%	-6
O=C(c1ccc2c3c(cccc13)CC2)C1CCCN(CC2CC2)C1 (centres undefined)	-1.1	-13	5%[15.4 µM]	.	14%	?	-17
Cc1ccc(S(=O)(=O)N(C)N=O)cc1	.	-14	.	-0.9%	10%	.	0
CNS(=O)(=O)c1ccc(-c2ccc(C=C3C(=O)NC(=O)NC3=O)o2)cc1	4.7	-5	-8%	1.9%	-5%	35µM*	18
CC(=NCc1ccco1)c1c(O)n(-c2ccccc2C)c(=O)[nH]c1=O	3.3	-6	1%[15.4 µM]	-1.8%	1%	6%	11
C=CCn1c(O)c(C(CC)=NC(C)c2ccccc2)c(=O)[nH]c1=O (centres undefined)	0.2	-8	-17%	0.5%	-7%	-9%	-9
COc1c(C)cc(C(=O)C2CCCN(Cc3cnc(C)s3)C2)cc1C (centres undefined)	1.9	-12	-11%[15.4 µM]	.	-2%	9%	-4
Cc1nc2ccc(P(=O)(O)O)cc2s1	-2.6	.	.	.	.	-81%	-17
Cc1cc(C=O)c(C)n1C(C)C	-0.6	-15	12%[15.4 µM]	.	-8%	20%	-1
c1ccc2c(CNC3CCCCCC3)c[nH]c2c1	1.9	-15	-1%	0.7%	11%	16%	5
O=C(/C=C/c1ccc(Br)cc1)NC(=S)N1C[C@H]2C[C@H](C1)c1cccc(=O)n1C2	-2.5	-22	.	-2.0%	-15%	-3%	0
COC(=O)C1=C(c2c(C)noc2C)C[C@@H]2CC[C@H]1N2C(=O)NCc1ccc(F)cc1	.	-8	.	-24%	9%	.	-17

Copied from the list:
Entry for c1ccc(C2NCc3ccccc3-n3cccc32)cc1 (centres undefined) under Menin MLL FP FL: 0.2
Entry for CC/C(=N\NC(=S)Nc1ccccc1)c1c(O)[nH]c(=O)[nH]c1=O under Sfp inh: 22µM*
Entry for COc1ccccc1CCNC1CCC(C(C)(C)C)CC1 (centres undefined) under Menin MLL FP FL: 5.3
Entry for COc1c(C)cc(C(=O)C2CCCN(Cc3cnc(C)s3)C2)cc1C (centres undefined) under Sfp inh: 9%
Entry for O=[N+]([O-])/C=C1/NCCN1Cc1ccc(Cl)nc1 under Menin MLL FP FL: -1.9
Entry for O=C(c1ccc2c3c(cccc13)CC2)C1CCCN(CC2CC2)C1 (centres undefined) under gsp ag: 5%[15.4 µM]
